Yeast UUG start – modulators of start codon recognition fidelity in yeast; S. cerevisiae UUG-firefly luciferase reporter, luminescence/redox ratio; activity score, % at 18.7 µM; hit rate 0.13% among 350,000;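 active = replicate mean at a twofold rise or more, about +100% in these data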;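 also: firefly luciferase made from a UUG start codon reports start codon fidelity; reporter light over untreated wells divided by growth signal over untreated wells; some hits fall short of that in this replicate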
Env fusion inh – HIV envelope-mediated fusion inhibition; HeLa-JRFL Env/CEM21 cell fusion, luciferase; inhibition, % at 12.3 µM; hit rate 1.1% among 360,000;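 active = mean replicate inhibition score of at least 50 and every replicate individually at or above 50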;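 also: 0% = plate neutral controls and 100% = maraviroc near 300 nM; one replicate is shown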
The depositor's hits bear a star; [ ] = another dose, or the depositor's remark. An excerpt; count on the stated rates, not on these rows.

C[C@@H]1CCCCO[C@H](CN(C)Cc2ccc(C(=O)Nc3ccccc3N)cc2)[C@@H](C)CN([C@H](C)CO)C(=O)c2cc(NS(=O)(=O)c3ccc(Cl)cc3)ccc2O1 was read as Yeast UUG start 0 and Env fusion inh -10[16.7 µM].
Screening C[C@H](CO)N1C[C@H](C)[C@@H](CN(C)C(=O)Nc2ccccc2)OCCCC[C@H](C)Oc2ccc(NC(=O)Nc3ccc4c(c3)OCO4)cc2C1=O returned Yeast UUG start 5 and Env fusion inh -14[16.7 µM].
Screening C[C@@H]1CN([C@H](C)CO)C(=O)c2cc(NS(C)(=O)=O)ccc2O[C@@H](C)CCCCO[C@@H]1CN(C)CC1CCCCC1 returned Yeast UUG start 21 and Env fusion inh 3[16.7 µM].
C[C@@H]1CN([C@H](C)CO)C(=O)c2cc(NC(=O)CCC(F)(F)F)ccc2O[C@@H](C)CCCCO[C@@H]1CN(C)CC1CCCCC1 was read as Yeast UUG start 14 and Env fusion inh 3[16.7 µM].
`C[C@@H]1CN([C@@H](C)CO)C(=O)c2cc(-c3ccccc3)cnc2O[C@H]1CN(C)C(=O)c1ccccn1` gave Yeast UUG start -10 and Env fusion inh 5[16.7 µM].
Cc1ccccc1-c1cnc2c(c1)C(=O)N([C@@H](C)CO)C[C@@H](C)[C@@H](CN(C)Cc1cncnc1)O2 was read as Yeast UUG start -9 and Env fusion inh -14[16.7 µM].
`N#C[C@H]1N[C@@H](CO)[C@@H]1c1ccc(C#CC2CCCC2)cc1` gave Yeast UUG start -12 and Env fusion inh -15[16.7 µM].
`CCCC#Cc1ccc2c(c1)O[C@@H](CN(C)C(=O)CN(C)C)[C@@H](C)CN([C@@H](C)CO)S2(=O)=O` gave Yeast UUG start -3 and Env fusion inh -8[16.7 µM].
Screening C[C@H]1CCCCO[C@H](CN(C)C(=O)C2CCCCC2)[C@@H](C)CN([C@@H](C)CO)C(=O)c2cc(NC(=O)Nc3ccccc3)ccc2O1 returned Yeast UUG start 1 and Env fusion inh 16[16.7 µM].
COc1ccc(S(=O)(=O)Nc2ccc3c(c2)C(=O)N([C@H](C)CO)C[C@H](C)[C@@H](CN(C)C(=O)c2ccncc2)OCCCC[C@@H](C)O3)cc1 was read as Yeast UUG start 6 and Env fusion inh -19[16.7 µM].
Cc1noc(C)c1NC(=O)Nc1ccc2c(c1)CC(=O)N([C@H](C)CO)C[C@H](C)[C@H](CN(C)Cc1ccccc1)O2 was read as Yeast UUG start -14 and Env fusion inh -22[16.7 µM].
C[C@H]1CN([C@@H](C)CO)C(=O)Cc2cc(NC(=O)Cc3ccccc3)ccc2O[C@H]1CN(C)S(=O)(=O)c1cn(C)cn1 was read as Yeast UUG start -13 and Env fusion inh -18[16.7 µM].

Some of these compounds in order of count of non-hydrogen atoms, lowest first.
`CCCC#Cc1ccc2c(c1)O[C@@H](CN(C)C(=O)CN(C)C)[C@@H](C)CN([C@@H](C)CO)S2(=O)=O` gave Yeast UUG start -3 and Env fusion inh -8[16.7 µM].
`C[C@@H]1CN([C@@H](C)CO)C(=O)c2cc(-c3ccccc3)cnc2O[C@H]1CN(C)C(=O)c1ccccn1` gave Yeast UUG start -10 and Env fusion inh 5[16.7 µM].
C[C@H]1CN([C@@H](C)CO)C(=O)Cc2cc(NC(=O)Cc3ccccc3)ccc2O[C@H]1CN(C)S(=O)(=O)c1cn(C)cn1 was read as Yeast UUG start -13 and Env fusion inh -18[16.7 µM].
C[C@@H]1CCCCO[C@H](CN(C)Cc2ccc(C(=O)Nc3ccccc3N)cc2)[C@@H](C)CN([C@H](C)CO)C(=O)c2cc(NS(=O)(=O)c3ccc(Cl)cc3)ccc2O1 was read as Yeast UUG start 0 and Env fusion inh -10[16.7 µM].

Other entries:
`C[C@H](CO)N1C[C@H](C)[C@@H](CN(C)S(=O)(=O)c2cn(C)cn2)Oc2ccc(NS(C)(=O)=O)cc2CC1=O` gave Yeast UUG start 8 and Env fusion inh 15[16.7 µM].
N#C[C@H]1[C@@H](c2ccc(-c3ccccc3F)cc2)[C@H](CO)N1C(=O)c1ccccn1 was read as Yeast UUG start 7 and Env fusion inh 10[16.7 µM].
COc1ccc(NC(=O)N(C)C[C@@H]2Oc3ncc(C#C[C@@H](C)O)cc3C(=O)N([C@H](C)CO)C[C@@H]2C)cc1 was read as Yeast UUG start -11 and Env fusion inh -6[16.7 µM].
Cc1noc(C)c1NC(=O)N(C)C[C@H]1OCCCC[C@@H](C)Oc2ccc(NC(=O)Cc3ccccc3)cc2C(=O)N([C@@H](C)CO)C[C@H]1C was read as Yeast UUG start -8 and Env fusion inh -15[16.7 µM].
C[C@H](CO)N1C[C@H](C)[C@@H](CN(C)S(C)(=O)=O)OCCCC[C@H](C)Oc2ccc(NC(=O)Nc3ccccc3)cc2C1=O was read as Yeast UUG start 26 and Env fusion inh -3[16.7 µM].
Screening Cc1noc(C)c1NC(=O)N(C)C[C@H]1OCCCC[C@H](C)Oc2ccc(NC(=O)Cc3ccccc3)cc2C(=O)N([C@H](C)CO)C[C@@H]1C returned Yeast UUG start 2 and Env fusion inh -9[16.7 µM].
Screening C[C@@H]1CCCCO[C@H](CN(C)C(=O)CCC(F)(F)F)[C@@H](C)CN([C@H](C)CO)C(=O)c2cc(NS(=O)(=O)c3ccccc3)ccc2O1 returned Yeast UUG start -12 and Env fusion inh -25[16.7 µM].
For C[C@H](CO)N1C[C@H](C)[C@H](CN(C)Cc2ccccc2C(F)(F)F)OCc2cn(nn2)CCCC1=O the results were Yeast UUG start -18 and Env fusion inh 13[16.7 µM].
C[C@@H]1CCCCO[C@@H](CN(C)C(=O)C2CCCCC2)[C@@H](C)CN([C@H](C)CO)C(=O)c2cc(NC(=O)Nc3ccc(F)cc3)ccc2O1 was read as Yeast UUG start -4 and Env fusion inh -20[16.7 µM].
C[C@@H]1CN([C@@H](C)CO)C(=O)c2cc(C#CC3(O)CCCC3)cnc2O[C@H]1CN(C)Cc1ccccc1 was read as Yeast UUG start -9 and Env fusion inh -2[16.7 µM].
For Cc1ccc(S(=O)(=O)Nc2ccc3c(c2)C(=O)N([C@@H](C)CO)C[C@H](C)[C@H](CN(C)Cc2ccc(C(=O)O)cc2)O3)cc1 the results were Yeast UUG start 19 and Env fusion inh -3[16.7 µM].
C[C@@H]1CN([C@H](C)CO)C(=O)c2cc(NC(=O)c3ccncc3)ccc2O[C@@H]1CN(C)Cc1ccc(Oc2ccccc2)cc1 was read as Yeast UUG start -4 and Env fusion inh -8[16.7 µM].
Screening C[C@@H]1CN([C@@H](C)CO)C(=O)Cc2cc(NC(=O)c3ccncc3)ccc2O[C@H]1CN(C)Cc1ccc(C(=O)Nc2ccccc2N)cc1 returned Yeast UUG start -19 and Env fusion inh 33[16.7 µM].
CC(=O)N[C@H]1CC[C@H](CCNC(=O)C2CCCC2)O[C@H]1CO was read as Yeast UUG start 52 and Env fusion inh 9[16.7 µM].
COCC#Cc1ccc2c(c1)O[C@@H](CN(C)Cc1ccncc1)[C@H](C)CN([C@@H](C)CO)S2(=O)=O was read as Yeast UUG start -8 and Env fusion inh -22[16.7 µM].
Cc1noc(C)c1S(=O)(=O)Nc1ccc2c(c1)CC(=O)N([C@@H](C)CO)C[C@@H](C)[C@H](CN(C)Cc1ccc(Oc3ccccc3)cc1)O2 was read as Yeast UUG start 9 and Env fusion inh 0[16.7 µM].
Screening COc1ccc(S(=O)(=O)Nc2ccc3c(c2)C(=O)N([C@@H](C)CO)C[C@H](C)[C@@H](CN(C)S(=O)(=O)c2cn(C)cn2)OCCCC[C@H](C)O3)cc1 returned Yeast UUG start -13 and Env fusion inh -4[16.7 µM].
For CCC(=O)N(C)C[C@@H]1Oc2cc(C3=CCCC3)ccc2S(=O)(=O)N([C@H](C)CO)C[C@@H]1C the results were Yeast UUG start 7 and Env fusion inh -7[16.7 µM].
Screening C[C@@H]1CN([C@@H](C)CO)C(=O)c2cc(NC(=O)Cc3ccccc3)ccc2O[C@H]1CN(C)Cc1ccc(C(F)(F)F)cc1 returned Yeast UUG start -2 and Env fusion inh 14[16.7 µM].
Screening COc1ccc(NC(=O)N[C@H]2C=C[C@@H](CC(=O)NCc3ccccn3)O[C@H]2CO)cc1 returned Yeast UUG start -18 and Env fusion inh -9[16.7 µM].
C[C@@H]1CCCCO[C@H](CN(C)S(=O)(=O)c2cccs2)[C@@H](C)CN([C@H](C)CO)C(=O)c2cc(NS(=O)(=O)c3cn(C)cn3)ccc2O1 was read as Yeast UUG start 17 and Env fusion inh -47[16.7 µM].
Screening COc1ccc(S(=O)(=O)Nc2ccc3c(c2)CC(=O)N([C@H](C)CO)C[C@@H](C)[C@H](CN(C)CC2CC2)O3)cc1 returned Yeast UUG start -2 and Env fusion inh 14[16.7 µM].
Screening C[C@@H]1CCCCO[C@H](CN(C)C(=O)C2CCCCC2)[C@@H](C)CN([C@@H](C)CO)C(=O)c2cc(NS(=O)(=O)c3ccccc3)ccc2O1 returned Yeast UUG start 2 and Env fusion inh -18[16.7 µM].
Screening C[C@H](CO)N1C[C@H](C)[C@H](CN(C)S(=O)(=O)c2ccc(F)cc2)Oc2ncc(-c3cccc(C(F)(F)F)c3)cc2C1=O returned Yeast UUG start -1 and Env fusion inh 26[16.7 µM].

Continued; it opens with the two that closed the last part.
Screening C[C@@H]1CCCCO[C@H](CN(C)C(=O)C2CCCCC2)[C@@H](C)CN([C@@H](C)CO)C(=O)c2cc(NS(=O)(=O)c3ccccc3)ccc2O1 returned Yeast UUG start 2 and Env fusion inh -18[16.7 µM].
Screening C[C@H](CO)N1C[C@H](C)[C@H](CN(C)S(=O)(=O)c2ccc(F)cc2)Oc2ncc(-c3cccc(C(F)(F)F)c3)cc2C1=O returned Yeast UUG start -1 and Env fusion inh 26[16.7 µM].
For COc1ccccc1NC(=O)N[C@H]1CC[C@@H](CCn2cc(-c3ccccc3)nn2)O[C@@H]1CO the results were Yeast UUG start 4 and Env fusion inh 2[16.7 µM].
`Cc1noc(C)c1NC(=O)Nc1ccc2c(c1)C(=O)N([C@H](C)CO)C[C@H](C)[C@H](CN(C)C(=O)Cc1ccccc1)OCCCC[C@H](C)O2` gave Yeast UUG start 6 and Env fusion inh -14[16.7 µM].
For O=C(C[C@H]1CC[C@@H]2[C@H](COC[C@H](O)CN2S(=O)(=O)c2ccccc2)O1)NCCN1CCCCC1 the results were Yeast UUG start -3 and Env fusion inh -1[16.7 µM].
Screening CCCC#Cc1cnc2c(c1)C(=O)N([C@@H](C)CO)C[C@H](C)[C@@H](CN(C)C(=O)C1CC1)O2 returned Yeast UUG start -17 and Env fusion inh 2[16.7 µM].
`C[C@H](CO)N1C[C@H](C)[C@@H](CN(C)Cc2ccc3c(c2)OCO3)Oc2ccc(NS(=O)(=O)c3cccs3)cc2CC1=O` gave Yeast UUG start 3 and Env fusion inh -66[16.7 µM].
`CC(C)CC#Cc1ccc2c(c1)O[C@H](CN(C)Cc1cncnc1)[C@@H](C)CN([C@@H](C)CO)S2(=O)=O` gave Yeast UUG start 0 and Env fusion inh -8[16.7 µM].
C[C@@H]1CN([C@@H](C)CO)C(=O)c2cc(C#Cc3ccccc3F)cnc2O[C@@H]1CN(C)C(=O)Cc1ccncc1 was read as Yeast UUG start -1 and Env fusion inh 10[16.7 µM].
Screening C[C@@H]1CN([C@H](C)CO)C(=O)Cc2cc(NC(=O)CCCCCC(=O)Nc3ccccc3N)ccc2O[C@@H]1CN(C)S(=O)(=O)c1cn(C)cn1 returned Yeast UUG start 11 and Env fusion inh -16[16.7 µM].
`C[C@H]1CCCCO[C@H](CN(C)Cc2ccc(C(F)(F)F)cc2)[C@@H](C)CN([C@@H](C)CO)C(=O)c2cc(NS(=O)(=O)c3ccccc3)ccc2O1` gave Yeast UUG start 8 and Env fusion inh -36[16.7 µM].
`C[C@@H]1CCCCO[C@H](CN(C)C(=O)Nc2ccc(F)cc2)[C@@H](C)CN([C@H](C)CO)C(=O)c2cc(NS(=O)(=O)c3ccc(F)cc3)ccc2O1` gave Yeast UUG start -6 and Env fusion inh -82[16.7 µM].
`C[C@@H]1CN([C@H](C)CO)C(=O)c2cc(Br)cnc2O[C@H]1CN(C)Cc1ccc2c(c1)OCO2` gave Yeast UUG start 1 and Env fusion inh 1[16.7 µM].
CCCC#Cc1ccc2c(c1)O[C@@H](CN(C)C(=O)c1ccncc1)[C@H](C)CN([C@H](C)CO)S2(=O)=O was read as Yeast UUG start -12 and Env fusion inh 6[16.7 µM].
`COC(=O)C[C@@H]1CC[C@@H]2[C@H](COC[C@@H](O)CN2S(=O)(=O)c2ccc(F)cc2)O1` gave Yeast UUG start -8 and Env fusion inh -4[16.7 µM].
Screening C[C@@H]1CCCCO[C@H](CN(C)Cc2ccc(C(F)(F)F)cc2)[C@@H](C)CN([C@@H](C)CO)C(=O)c2cc(NS(=O)(=O)c3ccccc3)ccc2O1 returned Yeast UUG start 8 and Env fusion inh -31[16.7 µM].
`Cn1cnc(S(=O)(=O)N[C@H]2C=C[C@@H](CC(=O)NCC3CC3)O[C@H]2CO)c1` gave Yeast UUG start 8 and Env fusion inh -9[16.7 µM].
C[C@@H]1CN([C@H](C)CO)C(=O)c2cc(NC(=O)Nc3ccc(C(F)(F)F)cc3)ccc2O[C@@H](C)CCCCO[C@@H]1CN(C)Cc1ccc(Cl)c(Cl)c1 was read as Yeast UUG start -10 and Env fusion inh 8[16.7 µM].
`O=C(C[C@H]1C[C@H]2c3cc(NC(=O)NC4CCCC4)ccc3O[C@H]2[C@@H](CO)O1)NCCN1CCCCC1` gave Yeast UUG start -8 and Env fusion inh -7[16.7 µM].
C[C@@H]1CN([C@H](C)CO)S(=O)(=O)c2ccc(C#CC(C)(C)O)cc2O[C@@H]1CN(C)C was read as Yeast UUG start -4 and Env fusion inh -3[16.7 µM].
For COc1cccc(C#Cc2cnc3c(c2)C(=O)N([C@@H](C)CO)C[C@H](C)[C@@H](CN(C)C)O3)c1 the results were Yeast UUG start 1 and Env fusion inh 9[16.7 µM].
CCCC#Cc1cnc2c(c1)C(=O)N([C@H](C)CO)C[C@@H](C)[C@H](CN(C)C(=O)Nc1c(C)noc1C)O2 was read as Yeast UUG start 19 and Env fusion inh -9[16.7 µM].

High-throughput results deposited in PubChem by Broad Institute.
